Yeast UUG start: yeast start codon fidelity modulation; S. cerevisiae UUG-firefly luciferase reporter, luminescence/redox ratio; activity score, % at 18.7 µM; 350,000 compounds, 0.13% hits; AID 602363;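 active = replicate mean at a twofold rise or more, about +100% in these data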;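 note: firefly luciferase made from a UUG start codon reports start codon fidelity; reporter light over untreated wells divided by growth signal over untreated wells; some hits fall short of that in this replicate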
MT1-MMP act inh: inhibitors of human MT1-MMP activation; HT1080 RFP-PRO-GFP cells, GFP/RFP ratio fluorescence, overnight; percent of plate control window, DMSO zero; GFP/RFP ratio change, % at 20 µM; 360,000 compounds, 0.061% hits;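 active = GFP/RFP ratio change of at least 30% with cell ATP level not reduced by more than half and red fluorescence within 50% of control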; note: strong numbers were not always called active
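Test system: HT1080 cells expressing an RFP-PRO-GFP fluorescent reporter construct / Compound dosing: single-point 20 µM compound, 1% DMSO / Schedule: cells overnight before dosing, compound overnight, 37 °C, 5% CO2 / Evaluation: GFP/RFP fluorescence ratio / Control set: DMSO and RFP-L50D-GFP cell wells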
CSC inhib: cancer stem cell inhibition. cancer stem cell-like cells viability, luminescence. inhibition, % at 7.5 µM. 300,000 compounds, 1.1% hits. AID 2717;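 active = mean at 75% or more and at least half the replicates too; inconclusive = mean and replicates disagree; tested in HMLE shEcad cells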;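 note: 0% = median of negative and 100% = median of positive control wells; the first replicate is given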
Env fusion inh: blocks HIV Env-driven cell-cell fusion; HeLa-JRFL Env/CEM21 cell fusion, luciferase; inhibition, % at 12.3 µM; 360,000 compounds, 1.1% hits;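 active = mean replicate inhibition score of at least 50 and every replicate individually at or above 50; inconclusive = only one of the two criteria met; inactive = mean below 50 and not all replicates reaching 50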;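 note: 0% = plate neutral controls and 100% = maraviroc near 300 nM; one replicate is shown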
Rce1 inhib: yeast Ras-converting enzyme inhibition; Q03530; yeast membranes, quenched prenylated peptide cleavage fluorescence; calls only; 290,000 compounds, 0.27% hits;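 active = fall in fluorescence gain of 50% or more versus controls, with final raw signal at or below 3038400; inconclusive = same 50% fall but final raw signal above 3038400; inactive = fall in fluorescence gain under 50%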;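 note: plate controls were neutral control wells for no effect and wells lacking membranes for full effect; tested at 10 µM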
Target sequence (Q03530 whole entry, looked up): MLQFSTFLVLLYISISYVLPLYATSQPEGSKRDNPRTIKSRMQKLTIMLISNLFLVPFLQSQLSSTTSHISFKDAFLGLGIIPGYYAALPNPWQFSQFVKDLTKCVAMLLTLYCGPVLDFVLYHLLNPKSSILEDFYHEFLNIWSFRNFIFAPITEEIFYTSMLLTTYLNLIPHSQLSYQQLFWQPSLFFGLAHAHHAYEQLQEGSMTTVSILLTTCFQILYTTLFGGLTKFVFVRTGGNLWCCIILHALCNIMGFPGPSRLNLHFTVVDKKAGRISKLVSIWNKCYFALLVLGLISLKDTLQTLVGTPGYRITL
eIF4H inh: inhibitors of RNA binding by human eIF4H. Q15056. eIF4H fluorescence polarization binding assay. inhibition, % at 35 µM. 290,000 compounds, 0.94% hits;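 active = 50% or more with normal probe brightness, or confirmed in later tests; inconclusive = above 50% with abnormal brightness, or retests that disagree; inactive = below 50% or failed in later tests; about a fifth of its hits are not listed in these tables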;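 note: calls also rest on retests at 20 µM and on dose response follow-up; 0% = protein and probe with vehicle and 100% = probe without protein; strong numbers were not always called active; many hits fall short of the cut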
PABP FP inh: PABP-poly(A) binding inhibition; P11940; 290,000 compounds, 1% hits; AID 2014; PABP-poly(A) RNA binding, fluorescence polarization; inhibition, % at 35 µM;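 active = 50% or more with normal probe brightness, or confirmed in later tests; inconclusive = above 50% with abnormal brightness, or retests that disagree; inactive = below 50% or failed in later tests; about a fifth of its hits are not listed in these tables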;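 note: calls also rest on retests at 20 µM and on dose response follow-up; controls were probe without protein and protein plus probe with vehicle; some compounds called inactive have numbers as strong as hits; many hits fall short of the cut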
eIF4H inh retest: recorded beside eIF4H inh, whose call it bears; inhibition, %; compound at 20 µM; confirmation average;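 mean of two retest wells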
PABP FP inh retest: recorded beside PABP FP inh, whose call it bears; inhibition, %; compound at 20 µM; confirmation repeats;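 mean of two retest wells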
MT1-MMP act inh RFP: second read-out of MT1-MMP act inh, no call of its own (marks repeat the call); RFP signal change, %; measured here: RFP expression control read;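 0 = vehicle wells; hits needed this value within 50% of zero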
* marks the source's active call; other numbers are inactive results; i = inactive; ? = inconclusive; . = no result given.

SMILES	Yeast UUG start	MT1-MMP act inh	MT1-MMP act inh RFP	CSC inhib	Env fusion inh	Rce1 inhib	eIF4H inh	PABP FP inh	others
CCc1cccc2c(C(=O)CSc3nnc(-c4ccncc4)n3C)c[nH]c12	-14	-4	1	-6	0	i	-5	-6
O=C(COC(=O)CCCN1C(=O)c2cccc3cccc(c23)C1=O)Nc1cccc(C(F)(F)F)c1	-6	0	4	0	.	i	0	3
COC(=O)c1sc(NC(=O)c2ccc(Cn3cc(Cl)cn3)o2)c(C#N)c1C	-7	20	3	53	.	i	4	33
CCCSc1nc(C)c2cc(C)cc(C)c2n1	.	-6	-6	-7	-43	i	6	-3
O=C(CSc1nc2ccccc2c(=O)n1CCCN1CCOCC1)Nc1ccc2c(c1)OCO2	.	-1	3	-7	9	i	7	5
CC1CN(S(=O)(=O)c2ccc(NC(=O)CCN3C(=O)c4ccccc4C3=O)cc2)CC(C)O1 (stereo not drawn)	-8	0	0	23	-18	i	8	-6
CCC(=O)Nc1nnc(-c2ccco2)o1	-23	-1	0	-2	-70	i	5	-1
COc1cc(CC(=O)Nc2nc(-c3ccc(F)c(F)c3)cs2)cc(OC)c1OC	-20	0	-28	31	31	i	-4	6
COc1ccc2c(c1)CCc1c(C(=O)NCc3ccc(Cl)cc3)noc1-2	.	-2	1	-1	-34	i	-7	3
O=C1CC2(CCCCC2)Oc2ccc(OCC(=O)N3CCOCC3)cc21	-4	10	0	-4	.	i	-6	-6
CC(C)NC(=O)CC(=O)N/N=C/c1ccc(Br)cc1	-24	3	3	-1	.	i	-7	-3
COc1cc2cc(CCOC(=O)c3ccc(F)cc3)oc(=O)c2cc1OC	2	4	2	-2	35	.	.	.
OC[C@@H]1CN(CCNc2ccccc2)C[C@H](n2cnc3c(NCc4ccncc4)ncnc32)O1	-1	-11	2	.	34	.	.	.
CC(=C1C(=O)c2ccccc2C1=O)N1CCC(C(N)=O)(N2CCCCC2)CC1	.	-6	2	.	0	i	3	2
Cc1nnc(C)c2c(C)n(-c3ccccc3)c(C)c12	-11	-5	2	.	-434	i	2	-5
CN1CCC(N(C)CC(=O)Nc2ccccc2N2CCOCC2)CC1	5	-1	2	-13	.	i	1	9
Cc1c2c(nc3c(C(=O)NC4CCCC4)cnn13)CCCC2	-19	0	2	0	19	i	10	0
CC(C)(C)[C@@H]1CCC(=O)N(CC[C@H](N=[N+]=[N-])c2ccccc2)CC1	-7	-4	-8	0	-7	i	2	10
CCOc1ccc(S(=O)(=O)NCc2ccccc2Cl)cc1C(N)=O	.	1	-6	.	4	i	-3	-5
CC[n+]1c(C)n(-c2ccccc2)c2ccc(NC(C)=O)cc21	-19	1	-19	-4	9	i	?	-2

Of the compounds above, 3 have an aryl methoxy group.
SMILES	Yeast UUG start	MT1-MMP act inh	MT1-MMP act inh RFP	CSC inhib	Env fusion inh	Rce1 inhib	eIF4H inh	PABP FP inh	others
COc1cc(CC(=O)Nc2nc(-c3ccc(F)c(F)c3)cs2)cc(OC)c1OC	-20	0	-28	31	31	i	-4	6
COc1ccc2c(c1)CCc1c(C(=O)NCc3ccc(Cl)cc3)noc1-2	.	-2	1	-1	-34	i	-7	3
COc1cc2cc(CCOC(=O)c3ccc(F)cc3)oc(=O)c2cc1OC	2	4	2	-2	35	.	.	.

Other structures:
SMILES	Yeast UUG start	MT1-MMP act inh	MT1-MMP act inh RFP	CSC inhib	Env fusion inh	Rce1 inhib	eIF4H inh	PABP FP inh	others
CC(=O)Nc1cc(C(=O)O)ccc1S(=O)(=O)c1ccc(C)cc1	-16	-3	-3	-12	-3	i	3	-1
CCCC(=O)N1CCOCC1c1cc(C(=O)NCc2ccccc2)no1 (stereo not drawn)	-4	-2	2	.	-57	.	.	.
CSC(=NCc1cccnc1)NS(=O)(=O)c1cccs1	-17	-3	-2	-6	.	i	4	1
Cc1cc(Sc2nccn2C)ncc1[N+](=O)[O-]	.	1	6	-10	10	i	-3	9
O=C(Nc1ccccc1)c1cccc(S(=O)(=O)N2CCCCC2)c1	-15	5	-7	-17	-36	i	-4	-1
O=[N+]([O-])c1cccnc1Oc1ccc(C2SCCS2)cc1	.	0	-3	2	-18	i	-16	-8
COc1cc(CNCCCN2CCOCC2)cc(Br)c1OCC(=O)N1CCCCC1	.	6	4	-10	.	i	-1	8
CC(C)(C)NC(=O)CN1CCN(C(=O)CCl)CC1	28	2	2	2	-4	i	-10	12
CN(CCNC(=O)c1ccc(N2CCCC2=O)cc1)CCc1ccccc1	.	3	1	-5	.	i	-4	1
CCOC(=O)C1(C)CCCN1C(=O)c1ccc(Cl)nc1 (stereo not drawn)	-16	1	4	.	-445	.	.	.
O=C1CC(Sc2ncn[nH]2)C(=O)N1c1ccccc1 (stereo not drawn)	-17	12	-1	-18	45	i	1	3
COc1ccc(/C=C/C(=O)OCC(=O)Nc2nnc(-c3ccccc3)o2)c(OC)c1	-14	3	8	.	-6	.	.	.
COc1cc(C(=S)N2CCOCC2)cc(OC)c1OC(=O)c1cc([N+](=O)[O-])c(C)c([N+](=O)[O-])c1	-14	1	-2	9	-28	i	22	11
COc1ccc(OCc2nnc(SCC(=O)Nc3ccccc3Cl)o2)cc1	.	-4	-1	-6	4	i	-10	0
CCS(=O)(=O)c1nc(S(=O)(=O)c2ccc(Cl)cc2)c(N2CCCC2)s1	-11	-3	-1	23	7	i	6	-6
CC(C)(C)NC(=O)C(=O)NN=C1CCCCCC1	.	2	5	-12	3	i	3	-6
CCN1CCN(S(=O)(=O)c2ccc(OC)c(NC(=O)c3ccccc3F)c2)CC1	.	5	3	-17	16	i	.	.
COc1ccc(N2CC(C(=O)Nc3ccc(S(=O)(=O)Nc4nccs4)cc3)CC2=O)c(OC)c1 (stereo not drawn)	5	-4	1	.	-5	.	.	.
CCCCCc1c(O)nc(SCCN(C)C)[nH]c1=O	-11	-9	-9	-12	13	i	-8	1
COc1cc(C=NNC(=O)Cn2nc(C)cc2C)ccc1OC(=O)C1CC1	-15	1	0	-7	13	.	.	.
COc1ccc(C)cc1NC(=O)CSc1nnc(-c2cc3cccc(OC)c3o2)n1N	-2	-7	-1	-17	.	i	1	3
CCC(C)(C)C(=O)Nc1ncc(S(=O)(=O)c2ccc([N+](=O)[O-])cc2)s1	-13	2	-9	-10	.	i	0	6
CCN(CC(=O)Nc1cc(C)c(Cl)cc1OC)CC(=O)NC1CCS(=O)(=O)C1 (stereo not drawn)	-2	6	-1	-14	11	i	-5	8
O=C(Nc1ccc(CN2CCOCC2)cc1)c1cc2ccccc2o1	-6	-2	-2	11	.	i	-5	5
CCOc1ccc(NC(=O)CSc2nc(NS(=O)(=O)c3ccc(C)cc3)cc(=O)[nH]2)cc1	-14	5	5	.	0	i	-12	-5
CC(=O)Oc1ccc2oc(=O)c3c(c2c1)CCCN3C(=O)CN1CCOCC1	.	0	1	-5	7	i	0	5
COc1ccc2oc(C(=O)N3CCc4ccccc43)c(C)c2c1	-65	-4	0	32	i	i	-1	1
CC(Sc1nnc(Cc2cccs2)n1C1CCCCC1)C(=O)N1CCc2ccccc21 (stereo not drawn)	-9	-1	-4	-2	.	i	-2	-4
COc1ccc(Nc2oc(COc3ccc(Cl)cc3)nc2C#N)cc1	-13	-9	0	29	84*	i	-6	-11
O=C(Nc1ccc(Nc2ccccc2)cc1)c1ccc(Cl)cc1	-7	1	-10	41	-41	.	.	.
O=C(Cc1cccs1)NCc1ccccc1Br	-10	1	4	17	-21	i	-7	7
Cc1ccc(S(=O)(=O)NCc2ccc(C(=O)NCCc3ccc(S(N)(=O)=O)cc3)cc2)cc1	-8	-8	-3	7	18	i	-3	1
CC(=O)c1ccc(N2CCN(C(=S)Nc3cccc(Cl)c3)CC2)cc1	-15	5	3	-4	14	i	2	26
Cc1cccc(NC(=O)Cn2cc(C(=O)C3CC3)c3ccccc32)c1C	-21	6	-9	-3	7	i	-7	-2
CCOC(=O)C1=C(COC(=O)/C=C/c2cccc([N+](=O)[O-])c2)NC(=O)NC1C (stereo not drawn)	.	4	1	-3	3	i	.	.
Cn1ncc(Cl)c1C(=O)N1CCN(C23CC4CC(CC(C4)C2)C3)CC1	-11	0	0	12	-2	i	9	-1
COc1cccc(C2C3=C(CC(C)(C)CC3=O)OC(N)=C2[N+](=O)[O-])c1 (stereo not drawn)	3	1	3	0	-13	i	-3	9
O=C(CN1CCC(C(=O)c2ccc3c(c2)OCCO3)CC1)Nc1ccccc1C(F)(F)F	-9	1	-3	0	6	i	-1	0
COc1ccc(NC(=O)NN2CCN(C)CC2)c(OC)c1	-7	2	2	-4	.	i	-2	-2
COCCn1c(=O)[nH]c2cc(C(=O)N3CCN(Cc4ccc5c(c4)OCO5)CC3)ccc2c1=O	1	-7	-24	.	19	.	.	.
CN(C)S(=O)(=O)N1CCc2ccccc21	-9	5	7	-7	.	i	3	4
O=C(CCNc1n[nH]c(=O)[nH]c1=O)N/N=C\c1ccc(Br)cc1	-14	2	0	-11	6	i	-13	1
CCCC(=O)Nc1cc2c3c(c1)C(C)C(=O)N3CCC2 (stereo not drawn)	-5	2	7	-9	-9	i	52	9	eIF4H inh retest=8;PABP FP inh retest=8
CC(=O)c1c(C)[nH]c(C(=O)CN2C(=O)NC(C)(c3ccc4c(c3)OCCO4)C2=O)c1C (stereo not drawn)	.	0	5	7	-2	i	.	.
CCOC(=O)C1CN(S(=O)(=O)c2ccc(C)cc2)c2cc(S(=O)(=O)CC)ccc2O1 (stereo not drawn)	4	3	7	4	-79	.	10	1
Brc1ccc(-c2nnc3n2C2(CCCC2)Cc2ccccc2-3)o1	-19	-12	-3	22	-101	i	6	5
Cc1ccccc1-n1nc2c(c1NC(=O)COc1ccc(Cl)cc1)CS(=O)C2 (stereo not drawn)	8	2	5	-9	-3	i	-3	2
Cc1ccc(S(=O)(=O)N2CCCC2C(=O)NCc2ccc3c(c2)OCO3)cc1 (stereo not drawn)	.	2	-4	9	-1	i	3	2
CCOC(=O)C1CCN(Cc2cccc(OCc3ccccc3)c2)CC1	2	-1	3	0	20	i	10	-3
Cc1nn(C)cc1N1C(=O)c2cccc3c(N)ccc(c23)C1=O	-35	-126	0	3	-9	i	?	?
O=C(Nc1c2c(nn1-c1ccccc1)CS(=O)(=O)C2)c1cccs1	-5	-3	2	8	-3	i	4	-1
Cc1cc(C)nc(Sc2c(C)nn(-c3ccccc3)c2C)n1	-11	0	0	-1	.	i	1	-6
Cc1ccc(C(=O)c2oc3nc(C)cc(C)c3c2N)cc1	-15	4	0	-5	-83	i	-8	6
COc1ccc2c3n([n+]([O-])c2c1)CCN=C3c1cc(Cl)c(N)c(Cl)c1	7	-11	0	9	-62	.	.	.
Cc1ccnc(NC(=O)c2cccs2)c1	-10	3	8	.	.	i	-8	0
COc1ccc(NC(=O)C2COc3ccccc3O2)cc1 (stereo not drawn)	-18	-3	-5	20	-25	i	0	8
Cc1ccc(CNC(=O)c2ccc(NS(=O)(=O)c3c(C)noc3C)cc2)cc1	-3	0	6	-4	.	i	-3	6
Cn1c(SCC(=O)NC2(C#N)CCCCC2)nnc1-c1cccnc1	-20	-2	3	-3	-24	i	-1	5
CCCCC1CCC(c2ccc(C(N)=O)cc2)CC1 (stereo not drawn)	-22	0	2	-8	10	i	6	-5
CS(=O)(=O)N(CC(=O)NCCSC1CCCCC1)c1ccccc1	.	2	3	-3	18	i	-6	2

Screening data (PubChem BioAssay)

Compounds as they come. Share with any hit: about 3%.
